UCH37 DUB inh = blocks the human deubiquitinase UCH37; inhibition, % (test concentration not listed); actives 0.33% (n = 330,000); Q9Y5K5; purified proteasome/UCH37, Ub-AMC cleavage fluorescence;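 active = mean of two replicates above 20%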;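 note: 0% = compound-free wells with enzyme and 100% = wells lacking proteasome; stock transfer was 100 nL into about 20 µL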
Target sequence (Q9Y5K5 whole entry, looked up): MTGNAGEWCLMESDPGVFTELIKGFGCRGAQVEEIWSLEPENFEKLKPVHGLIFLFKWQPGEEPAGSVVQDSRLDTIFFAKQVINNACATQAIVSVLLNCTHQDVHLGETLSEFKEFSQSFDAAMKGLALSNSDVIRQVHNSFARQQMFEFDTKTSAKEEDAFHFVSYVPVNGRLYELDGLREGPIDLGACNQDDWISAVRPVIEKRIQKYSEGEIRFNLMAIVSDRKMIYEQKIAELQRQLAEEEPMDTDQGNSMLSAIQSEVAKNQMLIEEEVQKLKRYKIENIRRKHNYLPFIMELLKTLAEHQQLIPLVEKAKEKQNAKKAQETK
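Test system – human UCH37 enzyme supplied as purified proteasome complex · Incubation – 30 min preincubation with enzyme, 25 min cleavage at room temperature · Detection – AMC fluorescence from Ub-AMC cleavage, excitation 355 nm, emission 460 nm · Benchmarks – no-proteasome wells (full inhibition) and compound-free wells (no inhibition)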
E coli growth = E. coli growth inhibition; Escherichia coli growth, OD600, 23 h; hits give low values; OD600 absorbance (no concentration beside the values); actives 0.21% (n = 330,000); AID 1053175;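 active = OD600 absorbance below the run mean of sample wells minus 3.6 SD, in any replicate, cut at about 0.56 in these data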;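 note: stock transfer was 300 nL into about 60 µL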
Beta2AR agonist = agonists of human beta-2 adrenergic receptor inducing internalization. P07550. Am2.2-beta2AR cells, FAP receptor internalization, flow cytometry; reference of the scale not given here. actives 0.43% (n = 340,000). response, % (no concentration beside the values);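 active = response above a set limit, near 3 SD of response in nonfluorescent compounds, cut at about 42% in these data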;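 note: stock transfer was 100 nL into about 11 µL; a reference agonist was the positive control; negative values mostly stem from fluorescent compounds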
Target sequence (P07550 whole entry, looked up): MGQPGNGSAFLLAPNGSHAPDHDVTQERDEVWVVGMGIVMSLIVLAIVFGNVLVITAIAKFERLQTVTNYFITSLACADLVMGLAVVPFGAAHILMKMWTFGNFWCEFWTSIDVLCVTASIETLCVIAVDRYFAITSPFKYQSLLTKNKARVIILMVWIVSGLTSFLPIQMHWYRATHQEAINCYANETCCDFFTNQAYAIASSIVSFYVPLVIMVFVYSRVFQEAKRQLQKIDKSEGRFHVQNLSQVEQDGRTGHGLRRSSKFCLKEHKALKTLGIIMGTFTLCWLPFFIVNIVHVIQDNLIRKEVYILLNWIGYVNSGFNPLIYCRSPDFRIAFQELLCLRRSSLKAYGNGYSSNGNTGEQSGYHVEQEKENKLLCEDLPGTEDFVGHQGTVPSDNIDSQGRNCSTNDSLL
LANA-H2A inh = blocks KSHV LANA binding to histone H2A/H2B; cell-free LANA-H2A/H2B peptide, fluorescence polarization; inhibition, % (concentration not given with the values); actives 0.6% (n = 320,000); in the data active = inhibition mostly above about 10%, no sharp cut-off; inactive = mostly below about 6.7%;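 note: stock transfer was 7.5 nL into about 10 µL; 0% = median of vehicle wells and 100% = median of positive control wells; one replicate is shown; the record names a cut of 25% in any replicate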
Bfl-1 A1 inh = inhibitors of the anti-apoptotic protein A1, read as caspase activation. MEF A1-2A-BIM cells, Caspase-Glo 3/7 luminescence, 3 h; percent of clofoctol response, vehicle zero. caspase activation, % (concentration not given with the values). actives 0.066% (n = 330,000). AID 2462;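 active = over half of replicate activation scores above 10%, or exactly half above 10 with the replicate mean above 10; inconclusive = replicate mean below 10 yet half the replicates above 10; inactive = over half of replicates below 10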;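 note: wells of about 30 µL received 50 nL stock; many hits fall short of the cut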
Vif A3G = HIV-1 Vif–A3G interaction blockers – biochemical, TR-FRET, GST-Vif 1-94, biotin-A3G peptide, dose response retest, primary screen (AID 1117319). inhibition, %, or IC50 in µM where a hit was titrated. TR-FRET GST-Vif / biotin-A3G peptide binding; higher % means a stronger effect; test concentration not given here; strong numbers were not always called active. actives 0.57% (n = 260,000);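 active = above the screen mean plus three standard deviations and confirmed in dose response; inconclusive = results disagree or hit not tested in dose response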;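 note: Vif residues 1-94 fused to GST binding biotinylated APOBEC3G peptide 110-148; 0% = full assay without inhibitor and 100% = GST in place of GST-Vif; retest series ran down from 100 µM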
HNF4A DNA FP = change in binding of human HNF4 alpha to DNA | HNF4a-FITC DNA binding, fluorescence polarization, 1 h | actives 0.3% (n = 360,000) | activity change, % at 10 µM | P41235; in the data active = activity change above about 30%, passing the limit was not always enough;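 note: controls were the assay level and a saturating level of protein; the project sought stronger binding though the title names inhibitors; some compounds called inactive have numbers as strong as hits; positive values seem to mean higher polarization but the record does not say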
Starred values were filed as active, the others as inactive. Compounds as they come; 2.1% or so of the library scored in one or more.

Results for O=C(/C=C/c1ccccc1)NNC(=O)c1ccco1 ?
UCH37 DUB inh: 4.0; E coli growth: 0.68; Beta2AR agonist: -6; LANA-H2A inh: 3.4; Bfl-1 A1 inh: -0.2; HNF4A DNA FP: 0.4

How did Cn1cnc([N+](=O)[O-])c1Cl do in these assays?
UCH37 DUB inh: 4.0; E coli growth: 0.65; Beta2AR agonist: 9; LANA-H2A inh: 3.3; Bfl-1 A1 inh: -0.7; Vif A3G: 3%; HNF4A DNA FP: 3.0

How did Cc1ccc(NC(=O)CSCC(=O)N(C)CC(=O)Nc2cccc3ccccc23)cc1 do in these assays?
UCH37 DUB inh: 1.8; E coli growth: 0.68; Beta2AR agonist: 1; LANA-H2A inh: -1.4; Bfl-1 A1 inh: 0.3; Vif A3G: -8%; HNF4A DNA FP: -3.9

What do the screens show for `Cc1ccccc1-c1cccc([C@@H]2C[C@H]3C(CN2)CON3C)c1` (stereo partly specified)?
Beta2AR agonist: 16; Vif A3G: -1%; HNF4A DNA FP: 3.9

What do the screens show for `COc1cc(C(F)(F)F)c(C(=O)N(C)Cc2ccc(Cl)c(Cl)c2)cn1`?
Beta2AR agonist: 11; LANA-H2A inh: -2.2; Bfl-1 A1 inh: -0.3; Vif A3G: -8%; HNF4A DNA FP: -4.6

Results for O=C(Cc1ccc(S(=O)(=O)N2CCOCC2)s1)NCC1CCCCC1 ?
UCH37 DUB inh: 4.4; E coli growth: 0.68; Beta2AR agonist: 0; LANA-H2A inh: 5.2; Bfl-1 A1 inh: 0.1; Vif A3G: 1%; HNF4A DNA FP: 0.3

How did COc1ccc(C(=O)C(C)OC(=O)c2nc3nccc(C)n3n2)cc1 (stereo unspecified) do in these assays?
UCH37 DUB inh: 1.6; E coli growth: 0.65; Beta2AR agonist: -1; LANA-H2A inh: -76; Bfl-1 A1 inh: 0.4; Vif A3G: -8%; HNF4A DNA FP: 1.2

How did Clc1ccccc1N1CCN(c2ncnc3nc[nH]c23)CC1 do in these assays?
UCH37 DUB inh: 4.3; E coli growth: 0.71; Beta2AR agonist: -4; LANA-H2A inh: 9.5; Bfl-1 A1 inh: -1.0; Vif A3G: 0%; HNF4A DNA FP: -1.7

What do the screens show for `Nn1c(SCC(=O)Nc2nccs2)nncc1=O`?
UCH37 DUB inh: 0.3; E coli growth: 0.7; Beta2AR agonist: -6; LANA-H2A inh: 3.9; Bfl-1 A1 inh: 0.3; Vif A3G: 8%; HNF4A DNA FP: 0.0

How did CN(C)c1ncc(S(=O)(=O)c2ccc(Cl)cc2)c(-c2ccc(Cl)cc2Cl)n1 do in these assays?
UCH37 DUB inh: 3.3; E coli growth: 0.65; Beta2AR agonist: 1; LANA-H2A inh: 0.9; Bfl-1 A1 inh: -0.2; Vif A3G: 4%; HNF4A DNA FP: -1.3

What do the screens show for `Cc1c(Cl)cccc1NC(=O)CCC(=O)N/N=C/c1ccco1`?
Beta2AR agonist: 1; LANA-H2A inh: -0.4; Bfl-1 A1 inh: -0.6; HNF4A DNA FP: 4.3

Results for CCOC(=O)c1c(C)[nH]c(C)c1S(=O)(=O)NCC1CCN(Cc2ccc(C)cc2)CC1 ?
UCH37 DUB inh: 4.8; E coli growth: 0.7; Beta2AR agonist: 1; LANA-H2A inh: -1.0; Bfl-1 A1 inh: -1.6; HNF4A DNA FP: 0.8

What do the screens show for `Cc1cccc(NC(=O)CCC(=O)N/N=C/c2ccco2)c1`?
Beta2AR agonist: -7; LANA-H2A inh: -3.0; Bfl-1 A1 inh: 0.2; HNF4A DNA FP: 0.8

Results for COc1ccc(NS(=O)(=O)c2cccc(C(=O)NNC(=O)c3ccc(C)o3)c2)cc1 ?
UCH37 DUB inh: 1.3; E coli growth: 0.68; Beta2AR agonist: 0; LANA-H2A inh: -19; Bfl-1 A1 inh: -1.2; Vif A3G: 21%; HNF4A DNA FP: -2.4

What do the screens show for `CC(C)SCCCCOc1ccc2ccccc2c1`?
UCH37 DUB inh: 3.5; E coli growth: 0.71; Beta2AR agonist: 2; LANA-H2A inh: -0.6; Bfl-1 A1 inh: -1.1; Vif A3G: -5%; HNF4A DNA FP: -1.1

How did O=C(NCC1CCCO1)c1ccc(NC(=O)c2cccc([N+](=O)[O-])c2)cc1 (stereo unspecified) do in these assays?
UCH37 DUB inh: 0.9; E coli growth: 0.68; Beta2AR agonist: 3; LANA-H2A inh: -0.3; Bfl-1 A1 inh: -0.2; HNF4A DNA FP: 3.5

How did O=c1oc(-c2ccco2)nc2sc3c(c12)CCCCC3 do in these assays?
UCH37 DUB inh: -13; E coli growth: 0.73; Beta2AR agonist: -5; LANA-H2A inh: 4.4; Bfl-1 A1 inh: -6.8; Vif A3G: -9%; HNF4A DNA FP: 1.2

How did CS(=O)(=O)N(CC(=O)N1CCCC1)Cc1ccccc1 do in these assays?
UCH37 DUB inh: 1.3; E coli growth: 0.71; Beta2AR agonist: -1; LANA-H2A inh: -1.5; Bfl-1 A1 inh: -1.0; Vif A3G: -1%; HNF4A DNA FP: 5.7

How did CCN(CC)CC(O)COC(c1ccccc1)c1ccccc1 (stereo unspecified) do in these assays?
UCH37 DUB inh: -0.2; E coli growth: 0.69; Beta2AR agonist: -7; LANA-H2A inh: -2.0; Bfl-1 A1 inh: -0.4; Vif A3G: 4%; HNF4A DNA FP: 0.3

Results for CCCc1cc(=O)[nH]c(SCC(=O)Nc2sc3c(c2C#N)CCCC3)n1 ?
UCH37 DUB inh: 0.7; E coli growth: 0.66; Beta2AR agonist: 3; LANA-H2A inh: 2.9; Bfl-1 A1 inh: 0.5; HNF4A DNA FP: -2.4

How did Cc1ccc2c(c1)cc(C)c1nnc(SCC(=O)NCc3ccco3)n12 do in these assays?
UCH37 DUB inh: 5.1; E coli growth: 0.69; Beta2AR agonist: 0; LANA-H2A inh: -1.9; Bfl-1 A1 inh: -0.9; Vif A3G: -5%; HNF4A DNA FP: -3.5

What do the screens show for `CCc1nnc(NC(=O)CSc2nnc(CNc3ccc(OC)cc3)n2C)s1`?
Beta2AR agonist: -3; LANA-H2A inh: 1.1; Bfl-1 A1 inh: -1.2; HNF4A DNA FP: -2.9

How did O=C(NNC(=O)c1ccc(O)cc1O)c1ccc(Cl)cc1 do in these assays?
UCH37 DUB inh: 3.4; E coli growth: 0.74; Beta2AR agonist: 9; LANA-H2A inh: -1.6; Bfl-1 A1 inh: -2.4; Vif A3G: 8%; HNF4A DNA FP: 2.3

Results for COCCNC(=O)C(c1ccc(F)cc1)N(CC1CCCO1)C(=O)CCC(=O)Nc1ccccn1 (stereo unspecified) ?
UCH37 DUB inh: 1.4; E coli growth: 0.69; Beta2AR agonist: 2; Vif A3G: 4%; HNF4A DNA FP: -0.3

Results for O=S(=O)(/C(=C\c1ccc(C(F)(F)F)cc1)c1nc2ccccc2[nH]1)c1ccccc1 ?
UCH37 DUB inh: 4.9; E coli growth: 0.64; Beta2AR agonist: 22; Vif A3G: 1%; HNF4A DNA FP: 0.1

Results for CC(NC(=S)NC1CCCCC1)c1ccccc1 (stereo unspecified) ?
UCH37 DUB inh: 2.8; E coli growth: 0.67; Beta2AR agonist: 5; LANA-H2A inh: 2.3; Bfl-1 A1 inh: 0.8; Vif A3G: -3%; HNF4A DNA FP: 1.6

What do the screens show for `COc1ccc(CC(=O)Nc2ccc(-c3nc4cc(C)ccc4o3)c(O)c2)cc1OC`?
UCH37 DUB inh: inactive; E coli growth: 0.82; Beta2AR agonist: 24; LANA-H2A inh: 1.0; Bfl-1 A1 inh: -0.5; Vif A3G: -5%; HNF4A DNA FP: 12

How did Nc1ccccc1SCc1csc(-c2ccc(Cl)cc2)n1 do in these assays?
UCH37 DUB inh: 2.9; E coli growth: 0.65; Beta2AR agonist: -5; LANA-H2A inh: 0.9; Bfl-1 A1 inh: -1.6; Vif A3G: -5%; HNF4A DNA FP: -1.7

Results for O=C(CC1C(=O)NCCN1C(=O)c1ccc(Cl)cc1)Nc1ccc(F)cc1 (stereo unspecified) ?
UCH37 DUB inh: 1.5; E coli growth: 0.64; Beta2AR agonist: 7; LANA-H2A inh: -12; Bfl-1 A1 inh: 0.2; Vif A3G: 10%; HNF4A DNA FP: -5.3

How did Cc1cccc(OCC(=O)Nc2ccc3nc(C)sc3c2)c1 do in these assays?
UCH37 DUB inh: 2.5; E coli growth: 0.68; Beta2AR agonist: 9; LANA-H2A inh: 4.5; Bfl-1 A1 inh: -0.6; Vif A3G: -1%; HNF4A DNA FP: -3.3

What do the screens show for `CCOCCCNC(=O)C(c1ccc(C)cc1)N(Cc1ccc2c(c1)OCO2)C(=O)c1ccccn1` (stereo unspecified)?
UCH37 DUB inh: -0.3; E coli growth: 0.73; Beta2AR agonist: 2; LANA-H2A inh: 0.5; Bfl-1 A1 inh: 0.1; Vif A3G: -1%; HNF4A DNA FP: 2.3

How did O=[N+]([O-])c1ccccc1S(=O)(=O)N1CCN(c2ccccn2)CC1 do in these assays?
UCH37 DUB inh: 4.5; E coli growth: 0.69; Beta2AR agonist: -2; LANA-H2A inh: -3.5; Bfl-1 A1 inh: 0.2; Vif A3G: 2%; HNF4A DNA FP: -0.6

How did CC(C)(CNC(=O)c1sc2cc(Cl)ccc2c1Cl)N1CCOCC1 do in these assays?
UCH37 DUB inh: 1.4; E coli growth: 0.65; LANA-H2A inh: 1.8; Bfl-1 A1 inh: 0.2; Vif A3G: 1%; HNF4A DNA FP: 0.0

Results for CC(C)c1ccc(C(CC(=O)c2ccc(Cl)cc2)C(=O)O)cc1 (stereo unspecified) ?
UCH37 DUB inh: 2.9; E coli growth: 0.71; Beta2AR agonist: -2; LANA-H2A inh: 1.2; Bfl-1 A1 inh: 0.1; Vif A3G: inconclusive; HNF4A DNA FP: -3.7

How did Cc1cccc(C)c1OCc1n[nH]c(=S)o1 do in these assays?
UCH37 DUB inh: 0.0; E coli growth: 0.68; Beta2AR agonist: -6; LANA-H2A inh: -2.4; Bfl-1 A1 inh: 0.6; Vif A3G: -4%; HNF4A DNA FP: 1.1

What do the screens show for `COCCN(C(=O)COC(=O)c1cc(C)n(-c2ccccc2)c1C)c1c(N)n(Cc2ccccc2)c(=O)[nH]c1=O`?
UCH37 DUB inh: -1.4; E coli growth: 0.7; Beta2AR agonist: 9; LANA-H2A inh: 0.1; Bfl-1 A1 inh: 1.7; Vif A3G: 2%; HNF4A DNA FP: 1.1

Results for O=C(Nc1cc(Cl)cc(Cl)c1)c1ccno1 ?
UCH37 DUB inh: 3.6; E coli growth: 0.67; Beta2AR agonist: -8; LANA-H2A inh: 0.6; Bfl-1 A1 inh: -0.1; Vif A3G: 2%; HNF4A DNA FP: -0.8

How did COc1cc(C(=O)Nc2nc(-c3ccc(C)cc3)cs2)ccc1OCC(=O)N1CCOCC1 do in these assays?
UCH37 DUB inh: -9.7; E coli growth: 0.71; Beta2AR agonist: 1; LANA-H2A inh: 10; Bfl-1 A1 inh: 0.5; HNF4A DNA FP: -2.6

Results for Cc1nn(C)cc1N1C(=O)c2cccc3c(N)ccc(c23)C1=O ?
Beta2AR agonist: -129; LANA-H2A inh: 101*; Bfl-1 A1 inh: 0.3; HNF4A DNA FP: -112

Results for CC(CCc1ccccc1)NC(=O)CSc1ccccc1 (stereo unspecified) ?
UCH37 DUB inh: 2.8; E coli growth: 0.71; Beta2AR agonist: 6; LANA-H2A inh: 0.2; Bfl-1 A1 inh: -1.1; HNF4A DNA FP: 1.0

Results for O=C(NCc1ccc(F)cc1)c1ccc(CNc2c(N3CCOCC3)c(=O)c2=O)cc1 ?
UCH37 DUB inh: 2.2; E coli growth: 0.67; Beta2AR agonist: -1; LANA-H2A inh: 4.0; Bfl-1 A1 inh: -0.5; Vif A3G: -5%; HNF4A DNA FP: -5.8

Source: PubChem BioAssay (several laboratories)
